Compound activity (PubChem BioAssay)
MLL AF4-AF9 inh = MLL-AF4/AF9 protein interaction inhibition; P42568; hit rate 0.47% among 350,000; inhibition, % at 10 µM; AlphaScreen, biotin-AF4 peptide binding to FLAG-AF9; AID 651704;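 active = every replicate reaching a set inhibition limit, whatever the replicate mean, cut at about 25% in these data; inconclusive = mean inhibition reaches that limit but some replicates miss it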;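 also: 0% = plate neutral control median and 100% = total signal loss; the record names both 10 and 1 µM as test concentration; the first replicate is given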
HNF4A DNA FP = change in binding of human HNF4 alpha to DNA | P41235 | HNF4a-FITC DNA binding, fluorescence polarization, 1 h | activity change, % at 10 µM | hit rate 0.3% among 360,000 | AID 1224865; in the data active = activity change above about 30%, passing the limit was not always enough;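 also: controls were the assay level and a saturating level of protein; the project sought stronger binding though the title names inhibitors; some compounds called inactive have numbers as strong as hits; positive values seem to mean higher polarization but the record does not say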
Target sequence (P41235 whole entry, looked up): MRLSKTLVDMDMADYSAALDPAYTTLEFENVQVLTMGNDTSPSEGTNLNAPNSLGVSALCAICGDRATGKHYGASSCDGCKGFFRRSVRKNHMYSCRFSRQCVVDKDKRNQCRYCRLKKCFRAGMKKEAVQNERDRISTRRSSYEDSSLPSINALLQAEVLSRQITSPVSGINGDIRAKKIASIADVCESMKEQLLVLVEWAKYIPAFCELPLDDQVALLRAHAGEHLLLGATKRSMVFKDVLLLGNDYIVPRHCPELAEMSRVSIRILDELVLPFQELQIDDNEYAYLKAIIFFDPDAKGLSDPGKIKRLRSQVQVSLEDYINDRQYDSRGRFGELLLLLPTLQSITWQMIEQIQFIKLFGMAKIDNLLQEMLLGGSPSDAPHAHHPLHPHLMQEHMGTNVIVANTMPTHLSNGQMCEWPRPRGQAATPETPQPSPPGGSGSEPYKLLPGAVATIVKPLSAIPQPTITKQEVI
Ecoli growth = blocks Escherichia coli growth; OD600, 23 h; hits give low values; OD600 absorbance (concentration not given with the values); AID 1053175; hit rate 0.21% among 330,000;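 active = OD600 absorbance below the run mean of sample wells minus 3.6 SD, in any replicate, cut at about 0.56 in these data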;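 also: stock transfer was 300 nL into about 60 µL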
UCH37 inh = inhibitors of human deubiquitinating enzyme UCH37. purified proteasome/UCH37, Ub-AMC cleavage fluorescence. inhibition, % (no concentration beside the values). hit rate 0.33% among 330,000;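 active = mean of two replicates above 20%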;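 also: 0% = compound-free wells with enzyme and 100% = wells lacking proteasome; stock transfer was 100 nL into about 20 µL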
Target sequence (Q9Y5K5 whole entry, looked up): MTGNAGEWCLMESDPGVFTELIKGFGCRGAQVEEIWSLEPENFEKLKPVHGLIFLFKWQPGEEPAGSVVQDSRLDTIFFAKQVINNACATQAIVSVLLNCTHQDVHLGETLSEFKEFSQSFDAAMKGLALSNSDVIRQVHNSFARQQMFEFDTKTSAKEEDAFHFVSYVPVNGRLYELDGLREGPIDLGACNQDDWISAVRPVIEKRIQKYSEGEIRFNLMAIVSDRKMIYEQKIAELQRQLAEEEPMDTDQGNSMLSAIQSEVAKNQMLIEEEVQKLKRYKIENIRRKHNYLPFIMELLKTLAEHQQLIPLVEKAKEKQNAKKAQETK
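Test system – human UCH37 enzyme supplied as purified proteasome complex · Incubation – 30 min preincubation with enzyme, 25 min cleavage at room temperature · Detection – AMC fluorescence from Ub-AMC cleavage, excitation 355 nm, emission 460 nm · Benchmarks – no-proteasome wells (full inhibition) and compound-free wells (no inhibition)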
FGF22 binding = binders of recombinant human FGF22 by thermal shift; AID 651658; SYPRO orange fluorescence; percent of sucrose octasulfate shift, DMSO zero; hit rate 1.5% among 340,000; calls only at 9.99 µM;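 active = melting point raised past a set limit in the mean and every replicate; inconclusive = no clear call; three in four hits are not shown here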
Target sequence (Q9HCT0 whole entry, looked up): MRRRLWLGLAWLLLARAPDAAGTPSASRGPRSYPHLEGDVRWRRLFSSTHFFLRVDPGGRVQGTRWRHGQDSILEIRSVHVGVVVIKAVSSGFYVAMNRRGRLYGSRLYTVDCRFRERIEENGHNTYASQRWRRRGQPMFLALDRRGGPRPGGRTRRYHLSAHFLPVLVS
RanGTP-Impb inh = disruptors of Ran-importin-beta complex formation – biochemical, FRET, CFP-Ran, YFP-importin-beta, homogeneous, primary screen | cell-free CFP-Ran/YFP-importin-beta FRET ratio | inhibition, % (no concentration beside the values) | hit rate 1.1% among 300,000 | AID 2216;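 active = most replicates above 15%; inconclusive = exactly half above 15%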;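 also: 0% = DMSO wells and 100% = Ran loaded with GDP instead of GTP; wells of about 40 µL received 100 nL stock; the first replicate is given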
Vif TR-FRET = inhibitors of Vif binding to APOBEC3G peptide, primary screen, biochemical, TR-FRET, GST-Vif 1-94, biotin-A3G peptide, dose response retest (AID 1117319) | TR-FRET GST-Vif / biotin-A3G peptide binding; higher % means a stronger effect; test concentration not given here; strong numbers were not always called active | one-dose inhibition, %; IC50 in µM for titrated hits | hit rate 0.57% among 260,000;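 active = above the screen mean plus three standard deviations and confirmed in dose response; inconclusive = results disagree or hit not tested in dose response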;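 also: Vif residues 1-94 fused to GST binding biotinylated APOBEC3G peptide 110-148; 0% = full assay without inhibitor and 100% = GST in place of GST-Vif; retest series ran down from 100 µM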
The depositor's hits bear a star; i = inactive; ? = inconclusive; . = no result given; & = joins results of further samples.

MLL AF4-AF9 inh	HNF4A DNA FP	Ecoli growth	UCH37 inh	FGF22 binding	RanGTP-Impb inh	Vif TR-FRET	Compound
1.2	0.3	.	.	i	.	-4%	CN1CCC(OC2c3ccccc3CCc3ccccc32)CC1
.	-4.0	0.75	3.9	.	4.8	0%	C=CCNc1nc(C)c(C(C)=O)cc1C#N
2.8	-5.4	0.74	0.7	i	4.0	.	Cc1ccccc1Cn1c(=O)n(CC2CCC(C(=O)NCCc3ccccc3)CC2)c(=O)c2ccccc21 (stereo not given)
.	2.7	0.71	2.7	.	4.9	-5%	COc1cc(C2c3c(-c4cc(C)cc(C)c4O)n[nH]c3C(=O)N2CCCO)cc(OC)c1OC (stereo not given)
-5.6	-2.2	0.68	2.5	i	-2.5	-3%	CC(C)CCNC(=O)CCCCn1c(=O)[nH]c2ccsc2c1=O
-1.8	-2.4	0.68	2.3	i	-0.2	.	O=C(CCCc1ccccc1)NCc1ccc(Cl)cc1
-2.2	0.9	0.67	3.4	i	-5.7	-8%	COc1ccc(CC(=O)N2CCc3ccccc3C2)cc1
-5.2	2.6	0.69	76*	i	.	14%	O=C1C(Cl)=C(NCCc2ccccc2)C(=O)c2ccccc21
.	-1.5	0.74	4.8	.	1.6	?	COc1ccc(C(C(=O)NC2CCCCC2)N(Cc2cccs2)C(=O)Cc2c[nH]c3ccccc23)cc1 (stereo not given)
-0.8	2.9	0.7	4.8	i	1.9	-2%	Cc1onc(-c2ccccc2)c1C(=O)Nc1ccccc1NC(=O)c1c(-c2ccccc2)noc1C
-0.6	-2.0	.	1.7	i	9.5	.	O=C(O)C[C@H]1c2cc(F)ccc2S(=O)(=O)N1Cc1ccccc1
-1.4	6.4	0.71	1.5	i	.	-2%	CN(C(=O)CSc1nnc(-c2ccc3c(c2)OCO3)o1)C1CCS(=O)(=O)C1 (stereo not given)
.	0.0	0.71	-0.8	.	1.2	-2%	CCOC(=O)CSc1nnc(-c2ccoc2C)n1-c1ccc(C)cc1
1.1	-0.9	0.66	3.3	i	.	.	CCCCN(C(=O)C1CC(=O)N(c2ccc3c(c2)OCCO3)C1)c1c(N)n(CCC)c(=O)[nH]c1=O (stereo not given)
-9.8	-0.6	0.63	3.6	i	1.3	-4%	O=C(NC1CCCCC1)C(c1ccccn1)N(C(=O)c1csnn1)c1ccccc1 (stereo not given)
3.6	3.2	0.65	-1.3	i	3.3	-2%	O=[N+]([O-])c1ccc(CSc2ccccn2)cc1
.	0.0	0.69	3.6	.	-5.2	.	O=C(CN1C2=NCCCN2c2ccccc21)c1ccc(Cl)cc1Cl
.	3.5	.	-0.4	.	0.0	-5%	Cc1ccccc1CS(=O)(=O)CCC(=O)NCCCN1CCOCC1
-4.0	3.3	0.66	0.5	i	1.0	1%	CCC(C)C(=O)Nc1cc(Cl)ccc1C(=O)O (stereo not given)
-9.5&-7.6	3.5	.	.	i	.	.	Cc1ccc(S(=O)(=O)Nc2ccc3c(c2)C(=O)N([C@@H](C)CO)C[C@@H](C)[C@@H](CN(C)C(=O)NC2CCCCC2)OCCCC[C@H](C)O3)cc1
-2.7	-0.7	0.67	-0.4	i	0.6	.	Cc1ccc(SCCNC(=O)c2ccc([N+](=O)[O-])c(C)c2)cc1
-2.2	-2.1	0.66	3.8	i	6.1	10%	O=c1c(Cl)c(Cl)cnn1Cc1nnc(-c2ccc(Cl)cc2)o1
.	-2.5	0.71	-2.1	.	5.8	28%	CCCN(CCC)CCNC(=O)CS(=O)Cc1nc(-c2ccc(C)cc2)oc1C (stereo not given)
.	-2.3	0.72	0.8	.	-0.2	5%	CCOP(=O)(OCC)C(NCc1ccccc1)c1ccc(Br)cc1 (stereo not given)
.	-1.5	0.67	5.1	.	9.0	-10%	Cc1cc(Cl)ccc1NC(=S)Nc1cccnc1
1.9	0.9	0.64	-2.6	i	3.0	14%	O=C(c1cc(-c2ccc(F)cc2)on1)N1CCN(c2ccc(F)cc2)CC1
.	3.0	0.66	3.5	.	?	-3%	Cc1cc(NC(=O)c2noc3c2CCCC3)no1
-1.4	3.2	0.73	5.1	i	-1.5	-5%	CCC(Oc1cccc(Cl)c1)C(=O)N1CCCN(C)CC1 (stereo not given)
.	4.1	0.74	1.6	.	5.0	-7%&-4%	CCOC(=O)c1c(C)n(C)c2ccc(OCC(O)Cn3c(C)nc4ccccc43)cc12 (stereo not given)
.	-4.1	0.76	6.6	.	-0.5	4%	C=Cn1nc(C)c2ccccc2c1=O
-0.1	-2.7	0.68	1.1	i	3.6	.	COc1ccc(S(=O)(=O)N2CCN(c3ncccn3)CC2)cc1[N+](=O)[O-]
.	-2.1	0.7	5.7	.	-0.3	22%	COC(=O)C1C(=O)N2CCCSC2=C(C#N)C1c1cccs1 (stereo not given)
.	2.7	0.66	1.3	.	3.2	-1%	O=C(O)c1oc2ccccc2c1-n1cccc1
2.9	1.5	0.75	5.0	i	.	-7%	Cc1ccc(S(=O)(=O)Nc2ccc3c(c2)C(=O)N([C@H](C)CO)C[C@@H](C)[C@@H](CN(C)C(=O)Nc2cccc4ccccc24)O3)cc1
-2.0	2.7	0.69	6.5	i	.	-7%	COCCCNC(=O)C[C@H]1C[C@H](C(=O)N2CCOCC2)[C@@]2(C)c3[nH]c4ccc(Cl)cc4c3CCN2C1=O
-0.8	-2.1	.	.	i	.	4%	O=S(=O)(c1ccc(F)c(F)c1)N1CCCCCCC1
-0.5	2.7	0.7	0.6	i	.	.	CC(C)(C)OC(=O)N1CCN(C(=O)c2[nH]cnc2C(=O)NCc2ccccc2)CC1
0.2	-0.4	.	.	i	.	-18%	COc1cc2c(cc1NC(=O)C(F)(F)F)-c1ccc(NC(=O)C(F)(F)F)cc1C2
0.0	-6.7	0.69	3.0	i	?	.	CCCc1nnc(NC(=O)CCC(=O)NC2CCCc3ccccc32)s1 (stereo not given)
-11	0.2	0.69	1.0	i	2.0	6%	COc1ccc(Cc2nnc(NC(=O)Nc3cccc(OC)c3)s2)cc1
.	1.6	0.71	2.2	.	-3.7	0%	CC1CCCC(C)N1C(=O)CSc1nc2ncnc(N)c2[nH]1 (stereo not given)
-7.0	-0.5	0.72	5.2	i	-1.1	15%	O=c1c2cc(NC(=S)N3CCCCC3)ccc2nc2n1CCCCC2
0.9	-1.9	0.66	1.1	i	2.5	1%	O=C(NC(Cc1ccccc1)C(=O)O)C1CCN(S(=O)(=O)c2ccccc2C(F)(F)F)CC1 (stereo not given)
1.4	4.0	0.69	0.4	.	-1.9	7%	CC(=O)Nc1ccc(-n2c(C)ccc2C)cc1
15	-1.2	0.68	11	i	-2.7	11%	COc1ccccc1Nc1nc(NCCCN(C)C)nc(N)c1[N+](=O)[O-]
-1.9&-2.5	5.0	.	.	i	.	.	CC(C)NC(=O)N[C@H]1CC[C@H](CC(=O)NCc2ccc(Oc3ccccc3)cc2)O[C@@H]1CO
.	2.8	0.74	-1.4	.	-2.0	7%	CC1(C)CC(=O)c2c(Cc3ccccc3)n[nH]c2C1
1.9	-1.6	0.72	2.0	i	0.7	2%	CCN(CC)C(=O)c1cn(-c2ccccc2)nc1-c1ccc2c(c1)OCCO2
.	1.1	.	.	.	?	28%	Cc1cccc(OCCOc2ccc(/C=N/NC(=O)Cc3nnc(N)s3)cc2)c1
15	0.1	0.71	2.5	i	4.6	?	Cc1ccc(S(=O)(=O)Cc2sc3ccccc3[n+]2C)cc1
-0.7	3.8	0.66	0.5	.	-2.4	.	COc1cc(C(=O)NCCOc2ccc(F)cc2)c(Br)c(OC)c1OC
.	0.7	0.73	-5.3	.	1.7	-2%	Cn1c(=O)c2c(nc(N3CCN(c4ccccc4)CC3)n2CCCc2ccccc2)n(C)c1=O
1.3	1.9	0.69	2.1	i	2.8	.	O=S(=O)(NC1CCCCC1N1CCOCC1)c1ccc(Cl)cc1 (stereo not given)
.	-1.4	0.67	-57	.	2.5	2%	CCCCCCCCS(=O)c1sc2nc3c(cc2c1N)CCCC3 (stereo not given)
2.3	-0.7	.	1.0	i	0.6	10%	C=C(C)[C@@H]1CCC2(C(=O)O)CC[C@]3(C)[C@H](CC[C@@H]4[C@@]5(C)CCC(=O)C(C)(C)[C@@H]5CC[C@]43C)[C@@H]12 (stereo not given in full)
9.0	4.8	.	.	i	.	.	CN(C)c1cccc(-c2cc(Nc3ccc(C(C)(C)C)cc3)ncn2)c1
.	3.7	0.64	2.3	.	-2.9	-6%	O=C(CNS(=O)(=O)c1cccc(C(F)(F)F)c1)Nc1ccccc1F
.	0.4	0.69	2.3	.	1.6	28%	CC1CCN(S(=O)(=O)c2cc(Cl)ccc2Br)CC1
?	3.9	0.71	5.0	i	-1.3	-2%	CC(Cc1ccccc1)C(=O)NCc1ccncc1 (stereo not given)
14	-1.2	0.63	4.3	i	-5.1	14%	CC(=O)Nc1ccc(NC(=S)Nc2ccc(Br)cc2)cc1

Later entries.
MLL AF4-AF9 inh	HNF4A DNA FP	Ecoli growth	UCH37 inh	FGF22 binding	RanGTP-Impb inh	Vif TR-FRET	Compound
0.2	-2.1	0.7	8.9	i	4.2	.	O=C(C1=C(O)C(=O)N(CC2CCCO2)C1c1cccc(O)c1)c1ccco1 (stereo not given)
-1.9	-0.2	.	.	i	1.2	8%	C(=N\Nc1ccccc1)/c1nc2ccccc2s1
-1.3	-1.1	0.71	2.5	i	2.7	2%	Cc1ccc(CNC(=O)C2CCC(=O)N(CCCN3CCOCC3)C2)cc1 (stereo not given)
.	0.7	0.69	3.7	.	-0.1	3%	CCCCSc1nnc(-c2ccc(C)cc2)n1C
-0.3	2.2	.	.	i	.	1%	CN(Cc1ccccc1)C(=O)c1cccc(NC(=O)Cc2ccc(NC(=O)C3CCCN(C(=O)CCc4ccccc4)C3)cc2)c1 (stereo not given)
.	0.9	0.7	3.9	.	26*	-7%	Cc1ccccc1N1CCN(C(=S)c2ccc([N+](=O)[O-])cc2)CC1
.	-2.3	0.73	-0.1	.	?	0%	CCCCCCCCn1c(N2CCN(c3cccc(Cl)c3)CC2)nc2c1c(=O)[nH]c(=O)n2C
-0.8	6.6	0.68	-0.3	.	3.2	.	CC(=O)c1cnc2c(-c3ccccc3)c(C(F)(F)F)nn2c1C
4.9	4.8	0.68	1.9	i	-2.8	.	O=C(NCc1cccc(C(F)(F)F)c1)C1CCC(=O)N(C2CCCCCC2)C1 (stereo not given)
.	-2.0	0.67	-16	.	3.0	30%	NS(=O)(=O)c1ccc(CCNC(=O)COC(=O)CCSc2ccc(Cl)cc2)cc1
0.4	6.3	0.66	5.3	i	.	7%	O=C(CN1CCN(c2ccc(O)cc2)CC1)NCC(=O)Nc1ccc(F)c(F)c1F

Some of the compounds tested (hit frequency here may not be typical).
